Bioassay records: PubChem BioAssay, ICCB-Longwood Screening Facility, Harvard Medical School
Mtb MenB inh: M. tuberculosis MenB inhibitors, primary screen, biochemical, absorbance; inhibition, %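 (about 12 µg/mL by stock and volumes)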; MenB enzyme assay, absorbance read-out; some hits fall short of the stated cut; AID 540299, 2011; 0.43% of 100,000 active; 1,4-dihydroxy-2-naphthoyl-CoA synthase (Mycobacterium tuberculosis (strain ATCC 25618 / …;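 active = mean of two replicates above 30%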;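 also: 0% = no compound and 100% = wells with inactive enzyme; the first replicate is given; strong numbers were not always called active; inactives centre near -10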
PV pol inh: poliovirus RdRp elongation inhibitors, primary screen, biochemical, fluorescence polarization, total intensity; Genome polyprotein (Poliovirus type 1 (strain Mahoney)), P03300; poliovirus polymerase elongation; active compounds read low; % elongation, % (compound at 16.7 µg/mL); 0.66% of 150,000 active; AID 588519, 2011; in the data active = % elongation below about 90%; also: some results filed as inactive read as strong as hits
Target sequence (P03300 1749-2209 limits assumed): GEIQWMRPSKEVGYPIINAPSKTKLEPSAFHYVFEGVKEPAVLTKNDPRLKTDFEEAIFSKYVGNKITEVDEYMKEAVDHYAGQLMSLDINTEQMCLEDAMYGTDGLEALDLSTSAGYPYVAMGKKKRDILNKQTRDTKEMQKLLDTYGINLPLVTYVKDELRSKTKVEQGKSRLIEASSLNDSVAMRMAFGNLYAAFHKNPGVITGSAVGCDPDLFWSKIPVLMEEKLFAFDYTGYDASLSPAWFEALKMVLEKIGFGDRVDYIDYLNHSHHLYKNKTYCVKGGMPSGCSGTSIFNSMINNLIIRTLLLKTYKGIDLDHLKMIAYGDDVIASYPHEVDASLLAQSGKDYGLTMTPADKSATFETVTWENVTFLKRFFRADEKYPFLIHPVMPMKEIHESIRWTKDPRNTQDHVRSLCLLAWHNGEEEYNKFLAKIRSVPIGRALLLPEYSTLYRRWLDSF
Mtb MbtI inh: MbtI salicylate synthase inhibitors, primary screen, biochemical, fluorescence intensity | 0.89% of 100,000 active | P9WFX0 | inhibition, %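 (about 17 µg/mL by stock and volumes)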 | purified MbtI enzyme, fluorescence intensity read-out | AID 493033, 2011;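 active = above 50% in both replicates, above 80% if mildly self-fluorescent; inactive = the rest, strongly fluorescent compounds included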;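 also: 0% = mean of negative and 100% = mean of positive controls; one replicate is shown; some compounds called inactive have numbers as strong as hits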
Target sequence (P9WFX0 whole entry, looked up): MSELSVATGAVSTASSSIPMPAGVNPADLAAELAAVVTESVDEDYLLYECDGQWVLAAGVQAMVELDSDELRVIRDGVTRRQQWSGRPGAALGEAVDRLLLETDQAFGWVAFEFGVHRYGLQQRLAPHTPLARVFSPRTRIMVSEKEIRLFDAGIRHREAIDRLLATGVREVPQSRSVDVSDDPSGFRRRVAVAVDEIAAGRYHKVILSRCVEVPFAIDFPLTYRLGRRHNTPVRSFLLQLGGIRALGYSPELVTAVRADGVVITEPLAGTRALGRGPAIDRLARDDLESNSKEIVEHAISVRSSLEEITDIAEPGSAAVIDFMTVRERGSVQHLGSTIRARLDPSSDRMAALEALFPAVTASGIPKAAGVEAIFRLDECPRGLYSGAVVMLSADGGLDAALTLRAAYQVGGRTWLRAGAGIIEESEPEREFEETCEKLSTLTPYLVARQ
PV pol inh intensity: recorded beside PV pol inh, whose call it bears; % elongation; measured here: total intensity read-out; formula for this scale not given here;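 total fluorescence in place of polarization; lower means less elongation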
Active calls of the source: *; · = not tested or not shown; & = joins results of further samples.

SMILES	Mtb MenB inh	PV pol inh	PV pol inh intensity	Mtb MbtI inh
CC(C)N(Cc1ccccc1)S(=O)(=O)c1ccc2c(c1)OCCO2	-8	95	98	35
O=C1c2ccccc2C(=O)N1CNc1ccccc1	-14	104	111	·
COc1ccc(-n2cc(C(=O)NCCCN3CCCCC3)c3ccccc3c2=O)cc1	6	101	102	-10
O=C(/C=N/O)Nc1cc(C(F)(F)F)cc(C(F)(F)F)c1	8	103	108	-6
COc1ccc(S(=O)(=O)N2CC=C(c3c(C)n(CC(=O)N4CCCC4)c4ccccc34)CC2)cc1OC	-4	100	103	11
N#CC(CC(=O)N1CCCCCC1)C(=O)Nc1ccc(Cl)cc1 (stereo not given)	0	106	109	-10
CN1CCN(c2ccc(NC(=O)Cc3ccccc3)cc2)CC1	-49	103	102	-8
COc1ccc(-c2noc(N3CCc4ccccc43)n2)cc1	-30	103	107	-6
O=C(Nc1ccccc1F)NC1CCCc2ccccc21 (stereo not given)	-7	105	111	-3
CC1CCCCN1S(=O)(=O)c1cccc(C(=O)O)c1 (stereo not given)	-7	101	101	1
CC(=NCCc1ccc(Cl)cc1)c1ccccc1O	0	100	103	-1
COC(=O)CSc1nnc(COc2cccc3ccccc23)o1	-22	103	102	0
O=C(CSc1nncs1)c1cccs1	-18	102	111	1
O=S(=O)(Nc1ccc2c(c1)N(S(=O)(=O)c1cccs1)CCC2)c1cccs1	-39	104	114	-1
COc1ccc(OC)c(S(=O)(=O)N2CCn3cccc3C2c2ccc(Cl)cc2Cl)c1 (stereo not given)	-10	109	110	0
N#CC1=C2SCCN2C(=O)C(C#N)C12CCCCC2 (stereo not given)	-19	103	102	-11
COC(=O)CSc1n[nH]c(C)n1	-9	100	101	2
N#CC(C#N)=CNc1ccccc1N	3	89	185	-15
CCOC(=O)C1CCN(/C=C2/C(=O)NC(=O)N(Cc3ccco3)C2=O)CC1	-25	100	100	6
COc1ccc(Nc2cc(Nc3ccccc3)ncn2)cc1	-11	102	103	-6

Entries of single compounds, looked up by structure. Order of screens: Mtb MenB inh	PV pol inh	PV pol inh intensity	Mtb MbtI inh
N#CC1=C2SCCN2C(=O)C(C#N)C12CCCCC2 (stereo not given) in the list: -19	103	102	-11
CC(=NCCc1ccc(Cl)cc1)c1ccccc1O in the list: 0	100	103	-1
CCOC(=O)C1CCN(/C=C2/C(=O)NC(=O)N(Cc3ccco3)C2=O)CC1 in the list: -25	100	100	6
N#CC(C#N)=CNc1ccccc1N in the list: 3	89	185	-15
COC(=O)CSc1nnc(COc2cccc3ccccc23)o1 in the list: -22	103	102	0

Further results:
SMILES	Mtb MenB inh	PV pol inh	PV pol inh intensity	Mtb MbtI inh
CNC(=O)c1ccccc1COC(=O)c1cccs1	-10	100	102	-8
N#CC(C(=O)c1ccccc1Cl)=C1SCCS1	-11	96	98	10
COCCn1cc(C(=O)c2ccccc2O)cc(C#N)c1=O	-6	109	130	7
O=C(O)c1ccc2c(c1)sc1nc(-c3ccc(F)cc3)cn12	5	99	102	6
COc1cccc(-c2nc3cc(C)ccc3o2)c1	-41	105	101	38
CC(C)Cn1c(O)c(C2=c3ccccc3=NC2=O)c2ccccc21	·	103	104	-2
Cc1ccc2[nH]c(=O)c(CNCCCN(C)C)cc2c1	-8	·	·	88
O=C1c2ccccc2C(=O)N1CNc1ccccc1C1CC1	-18	103	103	-17
CC1(C)Cc2ccccc2C(NN=C2CCCCC2)=N1	6	100	104	-1
CCN(C(=O)c1ccco1)c1nnc(Cn2nnc3ccccc32)s1	10	99	100	9
COc1cc(Br)cc(C=Nc2cc(C)on2)c1O	-50	93	86	6
O=C(Cc1csc(Nc2nc(=S)[nH]c3ccccc23)n1)N1CCN(c2cccc(Cl)c2)CC1	-72	102	102	9
COc1cc(OC)nc(NC(=O)COC(=O)c2ccc(S(=O)(=O)Nc3ccc(C)cc3)cc2)n1	-12	105	113	-7
CC(C)CCNC(=O)Cc1cccs1	-16	106	103	·
CNc1cnn(C23CC4CC(CC(CC(=O)O)(C4)C2)C3)c(=O)c1Cl	-26	99	99	11
NC(=O)C1CCN(CC(=O)NC(c2ccccc2)c2ccccc2)CC1	1	101	106	0
Cc1ccc(CN2CCc3[nH]c(=O)[nH]c(=O)c3C2)cc1	-19	105	103	11
Cc1ccc(-n2nnc3c(=O)n(CC(=O)N4CC(C)OC(C)C4)cnc32)cc1Cl (stereo not given)	-3	103	106	0
N#Cc1cnc(N2CCCCC2)[nH]c1=O	-15	102	103	19
Cc1cc(NCc2ccccc2)c2nncn2n1	-46	104	100	8
CCOC(=O)c1c(NC(=O)c2ccco2)sc2c1CC(C)(C)NC2(C)C	-11	102	100	7
COc1ccc(Cn2nnc3c(C)nnc(N4CCOCC4)c32)cc1	2	102	104	98
COc1ccc(CNC(=O)c2cccc(N3CCCC3=O)c2)cc1	-8	102	105	-2
Cc1cc2nc(Oc3ccc(S(=O)(=O)N4CCOCC4)cc3)c3ccccc3n2n1	0	102	109	50
Cc1ccccc1Cn1c(=N)n(CCO)c2ccccc21	9	103	103	-4
Cc1cc(OCC(=O)OC(C)C(N)=O)c(C(C)C)cc1Cl (stereo not given)	7	101	106	1
S=c1[nH]c2ccc(Cl)cc2[nH]1	-23	103	99	82*
CC(C)c1cccc(C(C)C)c1OCCCN1CCOCC1	·	100	104	-3
Cc1ccc(NC(=O)CNCc2ccco2)cc1Cl	-109	104	101	1
COc1ccc(C2NC(=O)C(C#N)=C(S)N2c2ccccc2)cc1OC (stereo not given)	-20	104	105	·
Cc1nc(CSc2nnc3scc(-c4ccccc4)n23)cs1	6	98	86	19
O=C(OCC(=O)N1CCCC1)C1CCN(S(=O)(=O)c2cccs2)CC1	9	100	103	-3
CNC(=O)c1c(-c2ccccc2)c2cc(OC)ccc2n1CCN(C)C	9	101	103	11
CCCCCCCc1c(O)c2cccc3c2n(c1=O)CCC3	3	101	102	-32
COc1ccc(-c2cc(N)n(C)n2)cc1	-28	101	102	-2
CNC(=O)c1cc(Cl)ccc1I	-11	104	103	12
NNC(=O)c1csc(N2CCOCC2)n1	3	98	102	7
COc1cc(C(=O)OCC(=O)N2CCOCC2)ccc1OCC(=O)Nc1ccc(F)cc1	-5	99	98	6
C=CCN(CC=C)C(=O)Cc1ccc(Br)cc1	0	108	110	·
COc1ccccc1NC(=O)C1c2ccccc2Oc2ccccc21	-17	102	96	-8
Cc1ccc(S(=O)(=O)N(C)c2c(C)ccc(S(=O)(=O)n3nc(C)cc3C)c2C)cc1	39*	101	102	-4
Cc1ccccc1Nc1nn2c(=O)c3ccc(C(=O)N4CCc5ccccc5C4)cc3nc2s1	-7	104	103	146
Cc1ccc(N2NC(=O)CC2=O)cc1C	13	92	91	·
Cc1nc2ccccc2n1C/C=C/c1ccccc1	-14	101	101	-5
O=C(CSc1nnnn1C1CC1)N(Cc1ccccc1)Cc1ccccc1	-30	104	106	-8
O=C(O)CCNC(=O)Nc1ccccc1	10	101	107	-10
COCCCn1cnnc1SC(C)C(=O)Nc1ccc(S(=O)(=O)N2CCOCC2)cc1 (stereo not given)	2	112	109	-3
Cc1ccc2c(c1)c(-c1ccccc1)nc1nnnn12	-41	102	100	4
Cc1cccc(N(C)C(=O)Cc2noc3ccccc23)c1	3	100	101	1
CCc1nnc(SCC(=O)NCc2ccc(C)cc2)c2cc3sccc3n12	-4	104	101	-1

Compounds listed so far containing an NH in an aromatic ring:
SMILES	Mtb MenB inh	PV pol inh	PV pol inh intensity	Mtb MbtI inh
COC(=O)CSc1n[nH]c(C)n1	-9	100	101	2
Cc1ccc2[nH]c(=O)c(CNCCCN(C)C)cc2c1	-8	·	·	88
O=C(Cc1csc(Nc2nc(=S)[nH]c3ccccc23)n1)N1CCN(c2cccc(Cl)c2)CC1	-72	102	102	9
Cc1ccc(CN2CCc3[nH]c(=O)[nH]c(=O)c3C2)cc1	-19	105	103	11
N#Cc1cnc(N2CCCCC2)[nH]c1=O	-15	102	103	19
S=c1[nH]c2ccc(Cl)cc2[nH]1	-23	103	99	82*

(listing goes on)
SMILES	Mtb MenB inh	PV pol inh	PV pol inh intensity	Mtb MbtI inh
S=c1[nH]nc2n1CCCN2	-1	100	95	25
CN(C)C(=S)SSC(=S)N(C)C	8	101	103	87*
CCNC(=O)NC(=O)Cn1cc(C(F)(F)F)ccc1=O	5	102	102	16
CO/N=C(\C(=O)N[C@@H]1C(=O)N2C(C(=O)O)=C(COC(C)=O)CS[C@H]12)c1csc(N)n1 (stereo in doubt)	0	101	101	-1
N#Cc1ccc(-c2cccs2)[nH]c1=S	-24	154	168	·
CCc1cccc2c(=O)c(CN(C)C)c(C)[nH]c12	-16	105	97	·
CC1CCCCC12NC(=O)N(CCCCN1C(=O)c3ccccc3C1=O)C2=O (stereo not given)	-19	106	109	7
O=C(CCc1ccccc1)NN1CCOCC1	-28	97	101	2
O=C(CSc1oc(-c2ccco2)nc1S(=O)(=O)c1ccc(Cl)cc1)NC1CCCCC1	-14	102	102	4
CC(C)COC(=O)n1n[n+]([O-])c2ccccc21	-2	103	108	·
Cc1nn(C)c(C)c1S(=O)(=O)N(CC(=O)N1CCn2c1nc1ccccc12)c1ccc(C(C)C)cc1	-22	99	96	3
CS(=O)(=O)Nc1ccc([N+](=O)[O-])cc1Oc1ccccc1	-5&-8&2	100&100&101&98	104&102&102&103	3&3&-13
C/C(=C\C(=O)c1ccc(C)cc1)N1CCOCC1	-21	103	104	-2
O=S(=O)(c1ccc(Cl)nc1)N(Cc1ccccc1)Cc1ccccc1	·	104	99	-26
O=C(C1COc2cc(S(=O)(=O)Nc3ccccc3)ccc2O1)N1CCCCC1 (stereo not given)	-23	102	99	11
CCOC(=O)C1CCN(C(=O)c2ccc3c(c2)S(=O)(=O)c2ccccc2C3=O)CC1	-23	102	101	-9
CCOC(=O)c1c(CN(CC)CC)n(-c2ccccc2)c2ccc(O)cc12	1	103	104	-2
Nc1cccc(-c2nn(-c3ccccc3)cc2CCC(=O)O)c1	·	99	96	-45
CS(=O)(=O)c1ncc(Cl)c(C(=O)Nc2cccc(Cl)c2)n1	10	102	103	81*
Cc1c(CSc2nnc(C3CC3)n2-c2ccccc2)noc1-c1ccc(F)cc1	-31	105	94	-3
Cc1ccc(N2CC(=O)N(N)CC2=O)cc1	-28	102	97	6
Cc1[nH]c(=S)sc1CC(=O)N(C)Cc1ccccc1Cl	-12	104	103	76*
Oc1ccccc1C=Nc1cccc(N=Cc2ccccc2O)c1	-27	104	113	-1
O=C(CC1S/C(=N\N=C2CCCCC2)NC1=O)Nc1ccc(F)cc1 (stereo not given)	-16	99	102	-4
O=C1NC(=O)N(c2ccccc2)C(=O)/C1=C/c1ccccc1	-40	98	102	3
Cc1ccc(Cn2c(=O)oc3ccccc32)cc1	7	101	103	7
CCC(C(=O)O)n1nnc(-c2ccsc2)n1 (stereo not given)	5	103	100	7
Cc1ccc(Nc2nnc(-c3ccccc3)c3ccccc23)cc1	-13	108	111	·
Cc1ccc(-n2c(C)cc(=O)cc2C)c(C)c1	-9	101	102	-7
Cc1ccc(-c2csc(-c3ccccc3N)n2)cc1	-42	99	94	42
CCC(=O)NC(=S)Nc1cccc(Cl)c1N1CCOCC1	4	101	98	-11
CCN(CC)C(=O)CC(c1ccccc1)c1ccco1 (stereo not given)	-27	101	103	18
COc1ccc(NC(=O)CC(c2ccccc2)c2ccco2)cc1 (stereo not given)	-21	100	105	9
O=C1NNS(=O)(=O)c2ccccc21	-52	101	105	94
CN(Cc1nc2ccccc2n1CCc1ccccc1)S(=O)(=O)c1ccccc1	-10	102	103	0
Cc1nnc(N2CCCC(C(=O)NC3CC3)C2)c2nn(-c3ccccc3)c(C)c12 (stereo not given)	-12	104	103	-16
CCN(CC)S(=O)(=O)c1ccc(NCCOC)c(C(=O)O)c1	-19	102	100	7
N#CC1(NC(=O)CN2CCN(c3ccccc3Cl)CC2)CCCC1	-18	105	107	-15
Cc1cc(C)c2[nH]c(=O)c(CN(CCN3CCOCC3)C(=S)NCC3CCCO3)cc2c1 (stereo not given)	3	102	103	-18
CCc1nc2c3ccccc3ncn2n1	-4	98	106	-13
Cc1c(C(=O)NN)nc2ccccn12	-4	105	108	3
O=C(Nc1noc2c1COc1ccccc1-2)N1CCC(Cc2ccccc2)CC1	-24	99	104	-24
O=C(Cn1c2ccccc2c2cn[nH]c(=O)c21)NCC1CCCO1 (stereo not given)	-7	102	101	8
Cc1ccc(-c2noc(CN3CCN(c4ccccc4F)CC3)n2)cc1	3	100	106	-54
CC(C)CNS(=O)(=O)c1ccc(NC(=O)c2cccnc2)cc1	9	100	103	3
COc1ccccc1-n1nnnc1SCc1ccccc1	4	99	99	-14
CN1C(=O)C/C(=N\O)N(C)C1=O	-34	103	100	12
CCn1c2ccccc2c2cc(N=C=S)ccc21	-39	100	105	0
OC(CNCCNc1ccc(C(F)(F)F)cn1)Cn1ccc2ccccc21 (stereo not given)	-19	105	104	1
CCC(C)(C)NC(=O)c1ccc2c(c1)OCCO2	·	101	100	-4
CCC1(CC)Cc2ccccc2C(=C(C#N)C#N)N1	27	101	103	0
CCn1c(=N)c(S(=O)(=O)c2ccccc2)cc2c(=O)n3ccccc3nc21	-118	101	99	16
CCOC(=O)c1cn(C2CC(O)(O)C3OCC2O3)nc1N (stereo not given) (tested in a mixture with another compound)	-14	109	110	·
